Bioassay records from PubChem.
Vaccinia stage: blocks a specific stage of Vaccinia orthopoxvirus infection; AID 1053133; 0.01% of 89,000 active; Vaccinia-infected cells, mCherry/Venus stage reporter fluorescence; hits give low values; some inactives read as strong as hits; activity change (mCherry), % (concentration not given with the values);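 active means mCherry past -33% and 40 or more points under the early reporter, replicates agreeing; inconclusive means past -33% without that gap or agreement; tested in A549 cells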;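 further: scaled between vehicle wells and reference inhibitor wells; 23 nL library stock went into each well; one replicate is shown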
Vaccinia stage Venus: also measured in Vaccinia stage; calls as there; activity change (Venus), %; measured here: Venus reporter, other viral stage;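 negative = less Venus signal; first of two replicates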
Starred values were filed as active, the others as inactive; ? = inconclusive; / = not tested or not shown; & = joins results of further samples. An excerpt; count on the stated rates, not on these rows.

SMILES	Vaccinia stage	Vaccinia stage Venus
O=C(C[C@H]1C[C@@H]2c3cc(NC(=O)c4ccc5c(c4)OCO5)ccc3O[C@@H]2[C@H](CO)O1)NCc1cc(F)ccc1F	1.6	-5.2
CN(C)CC(=O)N1[C@H](C(=O)NC2CCC2)[C@@H](CO)[C@@H]2Cn3c(ccc(-c4ccc(F)cc4)c3=O)[C@@H]21	27.6	14.2
CN(C)C(=O)c1cccc(-c2ccc([C@@H]3[C@H](CO)N4C(=O)CN(C(=O)C5CC5)C[C@@H]34)cc2)c1	7.4	7.1
CN(C)C(=O)C[C@@H]1C[C@H]2c3cc(NC(=O)c4ccc5c(c4)OCO5)ccc3O[C@H]2[C@H](CO)O1	4.6	10.7
CCc1nc(N2[C@H](C#N)[C@@H](c3ccccc3-c3ccccc3F)[C@@H]2CO)sc1C	-13.9	-7.8
CCCN(C)C[C@H]1Oc2cc(-c3cccnc3)ccc2S(=O)(=O)N([C@@H](C)CO)C[C@H]1C	0.1	-7.2
Cc1ccccc1-c1ccc([C@@H]2[C@H](CO)N3C(=O)CN(C(=O)NC4CCCC4)C[C@@H]23)cc1	-20.9	-33.4
CC(=O)N[C@H]1CC[C@@H](CCNC(=O)C2CCCC2)O[C@H]1CO	-4.6	3.2
C[C@H](CO)N1C[C@H](C)[C@H](CN(C)Cc2ccc3c(c2)OCO3)OCCCC[C@H](C)Oc2ccc(NC(=O)C3CCCCC3)cc2C1=O	?	/
CCCNC(=O)Nc1ccc2c(c1)OC[C@H](C)N(Cc1ccc(-c3ccccn3)cc1)C[C@@H](C)[C@@H](OC)CN(C)C2=O	-15.9	-11.3

Five entries from above, ordered by length of the SMILES, highest first:
SMILES	Vaccinia stage	Vaccinia stage Venus
C[C@H](CO)N1C[C@H](C)[C@H](CN(C)Cc2ccc3c(c2)OCO3)OCCCC[C@H](C)Oc2ccc(NC(=O)C3CCCCC3)cc2C1=O	?	/
CN(C)CC(=O)N1[C@H](C(=O)NC2CCC2)[C@@H](CO)[C@@H]2Cn3c(ccc(-c4ccc(F)cc4)c3=O)[C@@H]21	27.6	14.2
Cc1ccccc1-c1ccc([C@@H]2[C@H](CO)N3C(=O)CN(C(=O)NC4CCCC4)C[C@@H]23)cc1	-20.9	-33.4
CCCN(C)C[C@H]1Oc2cc(-c3cccnc3)ccc2S(=O)(=O)N([C@@H](C)CO)C[C@H]1C	0.1	-7.2
CCc1nc(N2[C@H](C#N)[C@@H](c3ccccc3-c3ccccc3F)[C@@H]2CO)sc1C	-13.9	-7.8

Record cards, as listed above. Values in the order: Vaccinia stage, Vaccinia stage Venus
CCCNC(=O)Nc1ccc2c(c1)OC[C@H](C)N(Cc1ccc(-c3ccccn3)cc1)C[C@@H](C)[C@@H](OC)CN(C)C2=O in the list: -15.9, -11.3
CN(C)CC(=O)N1[C@H](C(=O)NC2CCC2)[C@@H](CO)[C@@H]2Cn3c(ccc(-c4ccc(F)cc4)c3=O)[C@@H]21 in the list: 27.6, 14.2
CCCN(C)C[C@H]1Oc2cc(-c3cccnc3)ccc2S(=O)(=O)N([C@@H](C)CO)C[C@H]1C in the list: 0.1, -7.2
CC(=O)N[C@H]1CC[C@@H](CCNC(=O)C2CCCC2)O[C@H]1CO in the list: -4.6, 3.2

Further results:
SMILES	Vaccinia stage	Vaccinia stage Venus
COc1ccc(NC(=O)Nc2ccc3c(c2)C(=O)N([C@H](C)CO)C[C@@H](C)[C@H](CN(C)C(=O)Nc2ccccc2)O3)cc1	-1.9	-5.7
CCNC(=O)[C@@H]1[C@@H](CO)[C@@H]2Cn3c(ccc(-c4ccccc4F)c3=O)[C@H]1N2CC1CC1	8.7	4.5
COCC#Cc1ccc([C@@H]2[C@H](C#N)N(C(=O)Cc3ccccc3)[C@H]2CO)cc1	11.3	10.8
COCC(=O)N1CC2(C1)[C@@H](c1ccc(C3=CCCC3)cc1)[C@H](CO)N2C(=O)COC	12.8	16.4
C[C@H]1CN([C@@H](C)CO)C(=O)c2cccc(NS(=O)(=O)c3cccs3)c2O[C@H]1CN(C)Cc1ccc2c(c1)OCO2	25.7	11.8
CO[C@H]1CN(C)C(=O)c2ccc(NC(=O)C3CC3)cc2OC[C@@H](C)N(Cc2ccncc2)C[C@H]1C	15.9	14.5
CNC[C@@H]1Oc2c(NS(=O)(=O)c3ccc(F)cc3)cccc2C(=O)N([C@@H](C)CO)C[C@@H]1C	6.5	-5.1
COc1ccc(NC(=O)N2CC(=O)N3[C@H](CO)[C@H](c4ccc(/C=C/c5ccccc5)cc4)[C@H]3C2)cc1	-34.9	-24.9
C[C@@H]1CN([C@@H](C)CO)C(=O)c2cc(NC(=O)CCCN(C)C)ccc2O[C@@H](C)CCCCO[C@@H]1CN(C)Cc1ccc2c(c1)OCO2	10.8	3.7
C[C@H]1CN([C@@H](C)CO)C(=O)c2cc(Br)cnc2O[C@H]1CN(C)S(=O)(=O)c1cccs1	-2.6	-6.5
C[C@H](CO)N1C[C@H](C)[C@@H](CN(C)Cc2ccc(C(=O)Nc3ccccc3N)cc2)Oc2ccc(NC(=O)C3CC3)cc2C1=O	-6.0	9.1
CO[C@@H]1CN(C)C(=O)c2ccc(NC(=O)Nc3ccc(Cl)cc3)cc2OC[C@@H](C)N(C(=O)Nc2c(C)noc2C)C[C@@H]1C	-3.1	-5.6
C[C@@H]1CN([C@@H](C)CO)C(=O)c2cc(NC(=O)CCN3CCOCC3)ccc2O[C@@H]1CN(C)C(=O)Nc1ccccc1	6.6	2.4
COc1ccccc1C(=O)N1C[C@@H]2[C@H](c3ccccc31)[C@H](CO)N2C(=O)C1CCOCC1	-1.9	-2.5
C[C@@H]1CN([C@H](C)CO)C(=O)c2cc(-c3cccc(F)c3)cnc2O[C@H]1CN(C)S(C)(=O)=O	18.1	6.0
C[C@@H]1CN([C@H](C)CO)C(=O)c2cc(NC(=O)Nc3ccc(F)cc3)ccc2O[C@H]1CN(C)C(=O)Nc1cccc2ccccc12	16.5	6.0
O=C(C[C@H]1CC[C@H]2[C@@H](COC[C@H](O)CN2Cc2cccc(Cl)c2)O1)NCc1cccc(F)c1	-24.2	-18.9
O=C(Nc1ccc(F)cc1)N1C[C@@H]2[C@H](c3ccccc31)[C@H](CO)N2C(=O)c1cccnc1	16.9	11.8
C[C@@H]1CN([C@@H](C)CO)C(=O)c2cc(C3=CCCCC3)cnc2O[C@@H]1CN(C)Cc1cccnc1	4.2	2.7
CC(=O)N(C)C[C@H]1Oc2cc(C#CC3(O)CCCC3)ccc2S(=O)(=O)N([C@@H](C)CO)C[C@H]1C	12.2	4.7
CCCN(C)C[C@H]1Oc2cc(C#Cc3ccccc3F)ccc2S(=O)(=O)N([C@@H](C)CO)C[C@H]1C	-26.9	-25.1
CC(C)CC#Cc1ccc([C@@H]2[C@@H](CO)N3CCCCN(C(=O)c4ccc5c(c4)OCO5)C[C@H]23)cc1	-24.4	-26.1
CC(C)CC#Cc1ccc([C@H]2[C@H](CO)N3C(=O)CN(C(=O)c4ccc5c(c4)OCO5)C[C@@H]23)cc1	-18.0	-20.5
C[C@H](O)C#Cc1ccc([C@@H]2[C@H](CO)N3CCCCN(CC4CCOCC4)C[C@@H]23)cc1	7.9	-0.6
CCCC(=O)Nc1ccc2c(c1)OC[C@@H](C)N(C(=O)Cc1ccccn1)C[C@@H](C)[C@H](OC)CN(C)C2=O	0.1	-4.3
C[C@H](CO)N1C[C@H](C)[C@@H](CN(C)S(=O)(=O)c2ccc(F)cc2)Oc2c(NS(=O)(=O)c3cccs3)cccc2C1=O	2.0	7.4
Cc1cccc(S(=O)(=O)N2C[C@@H]3[C@H](c4ccccc42)[C@H](CO)N3Cc2ccccn2)c1	9.6	8.6
COc1ccccc1-c1cnc2c(c1)C(=O)N([C@H](C)CO)C[C@H](C)[C@@H](CN(C)CC1CCCC1)O2	-18.3	-1.6
C[C@H](CO)N1C[C@H](C)[C@H](CN(C)S(=O)(=O)c2cn(C)cn2)Oc2ncc(C#Cc3ccccc3)cc2C1=O	-7.9	-2.6
CC(=O)N(Cc1cccc(F)c1)C[C@H]1[C@@H](c2ccccc2)[C@@H](CO)N1C(C)=O	8.5	3.1
C[C@@H]1CCCCO[C@@H](CN(C)C(=O)Nc2ccc(C(F)(F)F)cc2)[C@H](C)CN([C@H](C)CO)C(=O)c2cc(NC(=O)Nc3ccccc3)ccc2O1	-31.0	-20.2
C[C@H](CO)N1C[C@H](C)[C@H](CN(C)Cc2ccc3c(c2)OCO3)Oc2c(NS(C)(=O)=O)cccc2C1=O	7.8	7.2
O=C(c1ccccn1)N1CC[C@@H]2[C@H]1c1cc(Br)ccc1N[C@@H]2CO	-7.7	-4.0
C[C@@H]1CCCCO[C@H](CN(C)Cc2ccc3c(c2)OCO3)[C@@H](C)CN([C@H](C)CO)C(=O)c2cc(NC(=O)C3CCCCC3)ccc2O1	-19.5	-20.0
CN1CCN(C(=O)C[C@@H]2C[C@H]3c4cc(NC(=O)C5CCOCC5)ccc4O[C@H]3[C@@H](CO)O2)CC1	24.1	12.4
CN(C)C(=O)c1cccc(-c2ccc([C@@H]3[C@H]4CN(C(=O)C5CCCC5)CC(=O)N4[C@H]3CO)cc2)c1	14.0	7.3
C[C@@H]1CN([C@@H](C)CO)C(=O)c2cccc(NC(=O)C3CCCCC3)c2O[C@@H]1CN(C)C(=O)NC1CCCCC1	-10.0	-6.5
CNC[C@@H]1Oc2ccc(NC(=O)Nc3c(C)noc3C)cc2CC(=O)N([C@H](C)CO)C[C@@H]1C	12.6	1.7
C[C@H]1CN([C@@H](C)CO)C(=O)CCCn2cc(nn2)CO[C@@H]1CN(C)Cc1cccc(C(=O)O)c1	14.2	11.2
C[C@@H]1CN([C@@H](C)CO)C(=O)c2cc(NS(=O)(=O)c3cn(C)cn3)ccc2O[C@H]1CN(C)Cc1ccc(C(F)(F)F)cc1	9.1	0.2
CCC(=O)Nc1ccc2c(c1)C(=O)N(C)C[C@@H](OC)[C@H](C)CN(Cc1ccccc1F)[C@H](C)CO2	-6.4	0.3
CCC(=O)Nc1ccc2c(c1)C(=O)N(C)C[C@H](OC)[C@@H](C)CN(C(=O)C1CC1)[C@@H](C)CO2	-0.2	-2.2
CCCC(=O)Nc1ccc2c(c1)C(=O)N(C)C[C@@H](OC)[C@@H](C)CN(C(=O)C1CCCC1)[C@H](C)CO2	-12.7	-6.8
CN(C)C(=O)C[C@@H]1CC[C@H](NC(=O)NC2CCCCC2)[C@@H](CO)O1	2.2	9.1
C[C@H](CO)N1C[C@H](C)[C@@H](CN(C)C(=O)C2CCOCC2)Oc2ncc(C3=CCCCC3)cc2C1=O	22.8	19.0
C[C@@H](O)C#Cc1cnc2c(c1)C(=O)N([C@@H](C)CO)C[C@H](C)[C@H](CN(C)Cc1cccc(F)c1)O2	6.9	3.5
O=C(C1CCCC1)N1CC(=O)N2[C@@H](CO)[C@@H](c3ccc(C#CC4CCCC4)cc3)[C@@H]2C1	-26.5	-19.8
COc1ccc2c3c([nH]c2c1)[C@H](CO)N(C(=O)CN1CCOCC1)CC31CCN(Cc2ccccc2)CC1	-10.3	-11.3
CC(C)c1cn(CC[C@@H]2CC[C@H](NC(=O)Nc3cc(Cl)cc(Cl)c3)[C@H](CO)O2)nn1	-14.7	-9.7
COCC(=O)Nc1ccc2c(c1)C(=O)N(C)[C@@H]1CC[C@@H](CC(=O)NCCCN(C)C)O[C@H]1CO2	6.3	8.8
(continued)
SMILES	Vaccinia stage	Vaccinia stage Venus
Cc1noc(C)c1NC(=O)N(C)C[C@@H]1Oc2ncc(/C=C/c3ccccc3)cc2C(=O)N([C@H](C)CO)C[C@H]1C	19.2	13.1
CCO[C@H]1OC(C(=O)NC2CC2)=C[C@@H](c2ccc(Br)cc2)[C@@H]1CCCO	8.5	-3.7
Cc1noc(C)c1NC(=O)N(C)C[C@H]1Oc2cc(C#CCC(C)C)ccc2S(=O)(=O)N([C@@H](C)CO)C[C@H]1C	-33.4	-33.1
CCCC(O)C#Cc1cnc2c(c1)C(=O)N([C@H](C)CO)C[C@H](C)[C@H](CN(C)C(=O)NC(C)C)O2 (stereo partly drawn)	9.4	19.9
C[C@@H]1CCCCO[C@@H](CN(C)CC2CCCCC2)[C@H](C)CN([C@H](C)CO)C(=O)c2cc(NC(=O)Nc3ccccc3)ccc2O1	?	/
CNC[C@@H]1Oc2ccc(NC(=O)Cn3cnnn3)cc2C(=O)N([C@H](C)CO)C[C@H]1C	19.7	9.2
O=C(NC1CCCCC1)N[C@H]1CC[C@@H](CCNS(=O)(=O)c2ccccc2)O[C@@H]1CO	4.1	1.1
COc1ccc2c3c(n(C)c2c1)[C@H](CO)N(CC1CC1)CC31CCN(S(=O)(=O)c2cn(C)cn2)CC1	12.4	9.2
C[C@H](CO)N1C[C@H](C)[C@H](CN(C)C(=O)[C@H]2CCCN2C)OCc2ccccc2-c2c(n(C)c3ccccc23)C1=O	-9.0	-5.0
C[C@@H]1CN([C@@H](C)CO)C(=O)Cc2cc(NS(=O)(=O)c3ccccc3)ccc2O[C@H]1CN(C)Cc1ccc(Oc2ccccc2)cc1	?	/
Cn1cnc(CCNC(=O)C[C@@H]2CC[C@@H]3[C@H](COC[C@@H](O)CN3C(=O)Nc3ccc(Cl)cc3)O2)c1	-13.8	-11.8
CCCN(C)C[C@@H]1Oc2cc(-c3cccc(C#N)c3)ccc2S(=O)(=O)N([C@H](C)CO)C[C@@H]1C	7.9	1.5
O=C(C[C@@H]1CC[C@H](NC(=O)CN2CCOCC2)[C@@H](CO)O1)NC1CCC1	9.6	8.5
COc1ccc(NC(=O)Nc2ccc3c(c2)C(=O)N([C@H](C)CO)C[C@H](C)[C@H](CN(C)CC2CCCCC2)OCCCC[C@@H](C)O3)cc1	?	/
C/C=C/c1ccc(C2[C@H]3CNC[C@@H]2N3S(=O)(=O)c2ccc(C)cc2)cc1 (stereo partly drawn)	16.6&11.9	19.6&7.2
CO[C@H]1CN(C)C(=O)c2ccc(NC(=O)C3CC3)cc2OC[C@H](C)N(C(=O)c2ccccc2)C[C@@H]1C	5.7	7.5
C[C@@H]1CN([C@H](C)CO)S(=O)(=O)c2ccc(C3=CCCC3)cc2O[C@H]1CN(C)C(=O)C1CCOCC1	8.5	1.9
